HBB splice mod: qHTS Assay for Modulators of Hemoglobin Beta Chain Splicing; HBB splicing reporter cell assay, activation; EGFP reporter with mutant IVS2-654 intron; response scale: normalised to 500 nM splice-correcting PNA; Potency, µM (top dose mostly 46.1 µM), without a hit: at the top dose activation, usual class: activators; 0.06% of 65,000 active; AID 925, 2007; note: potency is the fitted concentration of half-maximal effect; 0% is about no effect
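HeLa cells stably expressing EGFP interrupted by mutant beta-globin intron 2 (IVS2-654), 500/well in 2% FCS. Treated with compound for 2 days at 37C. Splicing correction scored as total well GFP intensity (488 nm excitation, 500-520 nm emission); 500 nM antisense PNA served as control.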
Pol III holo inh: qHTS Assay for Inhibitors of DNA Polymerase III Holoenzyme System | Potency, µM (titrated, usually from 57.1 µM), inactives show top-dose activity change, negative = inhibition | reconstituted DNA polymerase III holoenzyme replication, biochemical | 0.25% of 71,000 active; note: potency is the fitted concentration of half-maximal effect; % is set by controls: 0 for no effect and ±100 for the full control effect
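Reconstituted *E. coli* holoenzyme (0.35 nM Pol III, 1 nM beta, 154 nM SSB, 2 nM primase) was preincubated with compound for 15 min at RT. Synthesis on 1.4 nM ssM13Gori ran 35 min, then was stopped with PicoGreen/EDTA and read as dsDNA fluorescence.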
ERK AVP block: qHTS Assay for Inhibitors of the ERK Signaling Pathway using a Homogeneous Screening Assay | AID 995, 2007 | HEK293-V1b, vasopressin-stimulated pERK AlphaScreen | 0.99% of 72,000 active | Potency, µM (titrated, usually from 57.5 µM), for inactives: at the highest dose activity, negative = inhibition, usual class: inhibitors; note: potency is the fitted concentration of half-maximal effect; % is set by controls: 0 for no effect and ±100 for the full control effect; nearly all actives have a fitted effect of over 55% in size
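Overnight-seeded V1b-HEK293 cells in 1% FBS got compound, then vasopressin (25 nM final, 5 min, 37C), then lysis buffer. AlphaScreen detection of phospho-ERK; activity normalized to basal and full-stimulation controls.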
Tau fil binding: qHTS Assay for Tau Filament Binding. Microtubule-associated protein tau (Homo sapiens), P10636. 2% of 71,000 active. Potency, µM (doses to about 57.1 µM), without a hit: top-dose activity change, negative = inhibition. recombinant tau filaments, thioflavin S fluorescence, 15 h; filaments grown with octadecylsulfate alongside compound;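 note: potency is the fitted concentration of half-maximal effect; % is set by controls: 0 for no effect and ±100 for the full control effect; actives lower thioflavin S fluorescence by blocking filaments or displacing dye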
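Read-out: ThS fluorescence, 450 nm excitation/510 nm emission; lower signal marks blocked filament formation or displaced dye. Tau at 1 uM with 30 uM ODS, 10 uM ThS, 5 mM DTT, 100 mM NaCl, 10 mM HEPES pH 7.4; 15 h, 37 C.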
FLuc inh: qHTS Assay for Inhibitors of Firefly Luciferase. Luciferin 4-monooxygenase (Photinus pyralis), P08659. purified firefly luciferase, luminescence, 8 min. Potency, µM (series often up to 57.1 µM), for inactives: at the top dose activity change, negative = inhibition, usual class: inhibitors. 2.2% of 72,000 active; note: potency is the fitted concentration of half-maximal effect; % is set by controls: 0 for no effect and ±100 for the full control effect; nearly all actives have a fitted effect of over 40% in size
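Substrate buffer containing 10 uM ATP (pH 7.2 imidazole, Mg2+, KCl, detergent, BSA) is dispensed, compound pinned in, then luciferase/luciferin detector mix added. After 8 min at ambient temperature, light output is measured.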
Rhodamine autofl: qHTS Assay for Spectroscopic Profiling in Rhodamine Spectral Region; Rhodamine-region fluorescence, 547/598 nm, Tris buffer; active compounds read high; max dye-equivalent concentration, M; 0.05% of 59,000 active; AID 594, 2007; in the data active = max dye-equivalent concentration above about 11 nM; inconclusive = between about 1.1 nM and that limit
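Compound fluorescence in 100 mM Tris, pH 8.0, read after 15 min at room temperature with 547 nm excitation and 598 nm emission. Output is dye-equivalent concentration from an on-plate rhodamine standard series.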
CRE-bla Fsk: Cell signaling CRE-BLA (Fsk stim); CHO CRE-bla reporter (cAMP response element driving beta-lactamase), forskolin EC10, beta-lactamase ratio; Potency, µM (series often up to 38.2 µM), for the others: at the top dose activity change, negative = inhibition, actives largely listed as activators; 2.5% of 71,000 active; active = well fitted activation curve with a large enough effect in the signal ratio, with a control signal flat, not every such curve was filed as active; inconclusive = small, poorly fitted or top-dose-only effect, or effect the other way, or a change in a side signal; the % refers to the signal ratio; note: potency is the fitted concentration of half-maximal effect; % of control where 0% means no effect
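AC50 values, positive or negative, reflect shifts in EC10 NKH 477-induced CRE-bla reporter activity in CHO cells. Incubation lasted 3 h at 37 °C before CCF4 substrate (2 h, room temperature) and ratiometric 460/530 nm reading.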
15-hLO inh: qHTS Assay for Inhibitors of 15-hLO (15-human lipoxygenase). Polyunsaturated fatty acid lipoxygenase ALOX15 (Homo sapiens), P16050. purified 15hLO-1, xylenol orange hydroperoxide absorbance. Potency, µM (top dose mostly 57.1 µM), without a hit: at the top dose activity change, negative = inhibition, actives largely listed as inhibitors. 1.4% of 74,000 active. AID 887, 2007; note: potency is the fitted concentration of half-maximal effect; % is set by controls: 0 for no effect and ±100 for the full control effect; nearly all actives have a fitted effect of over 55% in size
Target sequence (P16050 whole entry, looked up): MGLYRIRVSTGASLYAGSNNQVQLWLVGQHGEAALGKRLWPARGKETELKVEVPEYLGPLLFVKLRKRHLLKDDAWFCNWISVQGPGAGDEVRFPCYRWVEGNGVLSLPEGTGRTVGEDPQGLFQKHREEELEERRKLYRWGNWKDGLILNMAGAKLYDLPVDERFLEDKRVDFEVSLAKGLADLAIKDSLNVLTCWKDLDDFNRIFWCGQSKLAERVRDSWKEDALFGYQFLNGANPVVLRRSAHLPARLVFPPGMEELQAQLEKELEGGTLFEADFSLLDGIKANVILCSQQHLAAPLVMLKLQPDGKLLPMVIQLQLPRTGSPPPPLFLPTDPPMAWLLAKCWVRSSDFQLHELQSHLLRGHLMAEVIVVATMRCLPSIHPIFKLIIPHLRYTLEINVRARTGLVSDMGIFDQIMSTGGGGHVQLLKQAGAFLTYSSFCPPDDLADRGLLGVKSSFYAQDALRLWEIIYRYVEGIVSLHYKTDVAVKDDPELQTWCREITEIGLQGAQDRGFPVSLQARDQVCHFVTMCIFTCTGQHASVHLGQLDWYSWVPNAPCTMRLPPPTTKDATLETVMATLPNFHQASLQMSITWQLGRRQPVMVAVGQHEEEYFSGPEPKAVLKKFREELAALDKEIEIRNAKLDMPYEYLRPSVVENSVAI
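Hydroperoxide formed from arachidonic acid (50 uM) by purified human 15hLO-1 (40 nM) oxidizes ferrous iron, and the ferric-xylenol orange complex is read at 573 versus 405 nm. Compounds were preincubated 15 min; reaction ran 6 min at room temperature.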
Texas Red fluor: qHTS Assay for Spectroscopic Profiling in Texas Red Spectral Region; Compound fluorescence, Texas Red channel, 547/618 nm; active compounds read high; max dye-equivalent concentration, M; 0.06% of 59,000 active; AID 587, 2007; in the data active = max dye-equivalent concentration above about 10 nM; inconclusive = between about 1.1 nM and that limit
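Compound titrations in 100 mM Tris pH 8.0 were incubated 15 min at room temperature and read at 547 nm excitation / 618 nm emission. Texas Red six-point standard curve on each plate converted fluorescence to dye-equivalent concentration.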
Hsp90 Hop PPI: qHTS Assay for Disrupters of an Hsp90 Co-Chaperone Interaction; Hsp90 C-terminal peptide / TPR2A (Hop) interaction, human; AlphaScreen TPR2A-His6 binding biotin-Hsp90 C-terminal peptide; 0.44% of 71,000 active; Potency, µM (titrated, usually from 57 µM), without a hit: at the top dose activity change, negative = inhibition; active = well fitted curve in either direction with a large enough effect; inconclusive = small, poorly fitted or top-dose-only effect, or another doubt; note: potency is the fitted concentration of half-maximal effect; % is set by controls: 0 for no effect and ±100 for the full control effect; many of its hits are not listed in these tables
Active calls of the source: *; i = inactive; ? = inconclusive; . = no result given; ! = not active in a repeat; [ ] = another dose, or the depositor's remark. Unless noted, calls come from the whole dose curve; as a rule, active = well fitted curve in the direction sought with a large enough effect; inconclusive = small, poorly fitted or top-dose-only effect, or another doubt; inactive = no such curve, though single readings can be large; an effect the other way counts as inactive or inconclusive. The list is partial (hit frequency here may not be typical).

SMILES	HBB splice mod	Pol III holo inh	ERK AVP block	Tau fil binding	FLuc inh	Rhodamine autofl	CRE-bla Fsk	15-hLO inh	Texas Red fluor	Hsp90 Hop PPI
Cc1cc(SCNC(=O)c2ccccc2)ncn1	0.6%[9.22 µM]	-3%	27%	-4%	0%	.	6%	?	.	?
COc1ccccc1-c1nnc(SC/C(O)=C(\C#N)c2nc3ccccc3[nH]2)n1C1CCCCC1	0.1%	-5%	5%	20%	3%	i	?	-23%	i	-9%
COc1ccc(C(=O)Nc2ccc(-c3cn4ccsc4n3)cc2)cc1S(=O)(=O)N1CCOCC1	-1.4%	-5%	6%	59%	-3%	i	2µM*	-1%	i	-5%
Clc1ccccc1-c1nnc2sc(CCc3ccccc3)nn12	-0.8%	4%	0%	-3%	-2%	i	6%	?	i	-4%
N#Cc1cc2c(nc1SCC(=O)NCc1ccc3c(c1)OCO3)CCCCC2	3.2%	-4%	-8%	145%	3%	i	?	-3%	i	0%
Cc1ncsc1C(=O)Nc1nc2c(s1)CC(C)CC2 (stereo unspecified)	.	-4%	-17%	-2%	10µM*	i	5%	-5%	i	-4%
Brc1ccc(-c2nnc(-c3ccco3)o2)cc1	.	.	.	.	.	.	.	-8%	.	.
CCNc1ncc2nc(-c3ccc(Cl)cc3)c(=O)n(Cc3ccc(F)cc3)c2n1	-0.9%	-8%	-3%	-10%	-1%[11.4 µM]	i	?	?	i	19%
Nc1ccc(O)c(C(=O)O)c1	1.3%	16µM*!	-13%	-12%	-9%[25.5 µM]	i	-9%	?	?	-6%
CCOC(=O)COc1ccc2c(c1)C(=O)CC(C)(C)O2	3.7%[57.5 µM]	-3%	-11%	15%	-7%	i	?	5%	i	-2%
CC1=CC(C)(C)Nc2ccc(OC(=O)c3ccco3)cc21	-2.4%[9.22 µM]	2%	-10%	122%	-5%	.	?	-1%	.	-19%
CC(C)Nc1ncnc2c1cnn2-c1ccccc1	-1.5%	-8%	.	3%	7.9µM*	.	18%	4%	.	-1%
Cc1nn(C)c(C)c1NC(=O)CCSc1nc(-c2ccco2)cc(C(F)(F)F)n1	0.1%[57.5 µM]	-10%	-23%	0%	7%	i	9%	3%	i	-1%
Cn1c(SCC(=O)c2ccccc2)nnc1C1CC1	-0.2%	0%	27%	-1%	1%	i	?	?	?	-1%
O=S(=O)(Nc1nc2ccccc2nc1NCCO)c1cccc(Cl)c1	-1.0%	7%	4%	-13%	2%	i	4%	0%	i	-3%
CCOC(=O)c1sc(=S)n(-c2cccc(OC)c2)c1N	2.6%[0.369 µM]	0%	-26%	-8%	-5%	i	-1%	?	i	-13%
Cc1n[nH]c(=O)nc1NCC1CCCO1 (stereo unspecified)	-0.6%	-4%	-10%	0%	4%	i	?	?	i	-3%
CN1C(=O)NC(c2ccccc2)C2=C1CN(c1cccc(C(F)(F)F)c1)C2=O (stereo unspecified)	-0.2%[0.369 µM]	-2%	?	-3%	2%	i	?	-5%	i	-1%
COC(=O)c1ccccc1NC(=O)CSc1nnc(Cc2ccc(Cl)cc2)o1	0.1%	1%	-18%	-10%	2%	i	3%	-28%	i	7%
O=C(Nc1cccc(-c2nnc(-c3ccccc3)o2)c1)C1CCCCC1	1.5%	4%	-12%	15%	1%	i	-8%	-13%	?	6%
Cc1cc(NC(=O)c2noc3c2CCCC3)no1	-1.0%	-3%	21%	-7%	-10%	i	-6%	5%	?	-7%
Cc1cc(NC(=O)CSc2ccc(Cl)cc2)no1	-4.9%	0%	7%	-10%	-1%	i	4%	-18%	?	3%
CCN(CC)C(=O)C1CCCN(C(=O)Nc2ccc3nsnc3c2)C1 (stereo unspecified)	0.3%	-10%	-8%	17%	0%	.	6%	-10%	.	-1%
COc1ccc(NC(=O)CSc2nc3c(c(=O)n2-c2ccc(F)cc2)SCC3)cc1	-0.1%	-3%	.	-2%	-4%	.	6%	17%	.	-14%
N#Cc1nc(-c2cccc3ccccc23)oc1N1CCCCC1	-1.6%[1.84 µM]	0%	-1%	-16%	3%	i	28%	8%	i	-11%

(next part)
SMILES	HBB splice mod	Pol III holo inh	ERK AVP block	Tau fil binding	FLuc inh	Rhodamine autofl	CRE-bla Fsk	15-hLO inh	Texas Red fluor	Hsp90 Hop PPI
O=C(Nc1nnc(CC2=CCCCC2)s1)c1cccs1	0.3%	2%	-27%	152%	-1%	i	?	2%	?	-6%
c1coc(-c2nn3c(Cn4nnc5ccccc54)nnc3s2)c1	-2.4%[57.5 µM]	-6%	-17%	-11%	2%	i	7%	-29%	i	2%
COc1ccc(CC(=O)Nc2ccc(-c3noc(-c4cccc(OC)c4)n3)cc2)cc1	-0.7%	-6%	0%	-1%	0%	i	-16%	-14%	i	0%
Cc1nc2ccc(NC(=O)N3CCSCC3)cc2s1	0.0%	-3%	-25%	6%	-1%	i	7%	2%	i	-3%
N#Cc1nc(-c2cccc3ccccc23)oc1NCCN1CCOCC1	1.3%[1.84 µM]	-2%	-1%	22%	-14%	i	10µM*	-4%	i	15%
O=C(COc1ccccc1)Nc1cccc(-c2nnc(-c3ccccc3)o2)c1	2.0%[0.369 µM]	-9%	-3%	79%	-12%	i	-2%	-3%	i	6%
COc1ccc(NC(=O)c2ccco2)cc1NC(=O)c1c(F)c(F)c(OC)c(F)c1F	-1.6%	-6%	-9%	45%	0%	i	3%	4%	i	-6%
N#Cc1cccc(-c2ccc3ncnc(NCc4ccccc4)c3c2)c1	-0.8%	-9%	?	.	-1%[2.29 µM]	i	?	-4%	i	-5%
O=C(Nc1nnc(CCN2CCOCC2)s1)C1CCCCC1	-1.6%	-12%	?	38%	13µM*	i	-16%	-18%	?	-10%
COCCNC(=O)c1cc2c(-c3ccc(Cl)cc3)nn(C)c2s1	-0.5%	-17%	-4%	58%	5%	.	7.9µM*	-4%	.	0%[2.3 µM]
COCCn1nnnc1C(c1cc2cccc(C)c2[nH]c1=O)N1CCN(c2ccccc2F)CC1 (stereo unspecified)	.	-6%	-5%	-10%	1%	i	-10%	-6%	i	-5%
COC(=O)c1c(NC(=O)C2CC=CCC2C(=O)O)sc(C(N)=O)c1C (stereo unspecified)	-2.7%	-6%	-23%	13%	-2%	i	?	-11%	?	-4%
O=C(Cn1c(-c2ccccn2)nc2ccccc21)NCCN1CCOCC1	-0.4%	-16%	-11%	-2%	-1%	i	?	-26%	i	-4%
COc1ccc(NC(=O)CN2CCN(CC(=O)Nc3cc(OC)cc(OC)c3)CC2)cc1	.	.	.	.	.	.	.	0%	.	.
O=C(COc1ccccc1)N1CCN(c2nnc(-c3ccccc3)c3ccccc23)CC1	-1.7%	-14%	-16%	0%	1%	i	-5%	-6%	?	-8%
CCOC(=O)c1sc2nc3n(c(=O)c2c1C)CCC(C)CC3 (stereo unspecified)	4.3%[0.369 µM]	-9%	-20%	4%	-3%	i	?	?	i	-3%
CC(C)(C)c1ccc(-c2nnc3sc(-c4ccccn4)nn23)cc1	-0.2%	-10%	.	?	-24%	.	?	-8%	.	2µM*
c1coc(-c2nnc(-c3cccs3)o2)c1	0.1%[57.5 µM]	-2%	-12%	2%	-7%	i	6%	28%	i	-2%
COc1ccc(OC)c(S(=O)(=O)Nc2ccccc2C)c1	0.0%	-1%	-11%	-2%	2%	i	-4%	4%	i	-2%

Limited to 15-hLO inh, for some of the entries so far:
compound	15-hLO inh
COC(=O)c1c(NC(=O)C2CC=CCC2C(=O)O)sc(C(N)=O)c1C (stereo unspecified)	-11%
O=C(Cn1c(-c2ccccn2)nc2ccccc21)NCCN1CCOCC1	-26%

3 structures from above, sorted by count of non-hydrogen atoms, falling.
SMILES	HBB splice mod	Pol III holo inh	ERK AVP block	Tau fil binding	FLuc inh	Rhodamine autofl	CRE-bla Fsk	15-hLO inh	Texas Red fluor	Hsp90 Hop PPI
COc1ccc(NC(=O)CN2CCN(CC(=O)Nc3cc(OC)cc(OC)c3)CC2)cc1	.	.	.	.	.	.	.	0%	.	.
COC(=O)c1c(NC(=O)C2CC=CCC2C(=O)O)sc(C(N)=O)c1C (stereo unspecified)	-2.7%	-6%	-23%	13%	-2%	i	?	-11%	?	-4%
O=C(Nc1nnc(CC2=CCCCC2)s1)c1cccs1	0.3%	2%	-27%	152%	-1%	i	?	2%	?	-6%

Structures listed above shown as hits in Pol III holo inh:
Molecule	Pol III holo inh	Tau fil binding	FLuc inh	Rhodamine autofl	CRE-bla Fsk	15-hLO inh	Texas Red fluor	Hsp90 Hop PPI
Nc1ccc(O)c(C(=O)O)c1	16µM*!	-12%	-9%[25.5 µM]	i	-9%	?	?	-6%
